Six1-Eya2 inh – Six1/Eya2 interaction inhibition | AlphaScreen GST-Six1/His-Eya2 binding, biochemical; stronger effect = lower value; control for the full effect not named in the record | hit rate 0.56% among 360,000 | activity change, % (no concentration beside the values) | Q15475+O00167; in the data active = activity change below about -65%; inconclusive = about -30% to -65%; inactive = above about -30%; also: % is scaled to controls: 0 for no effect and ±100 for the full control effect; compound concentration not given in the record
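Homogeneous AlphaScreen proximity assay pairing GST-Six1 with His-tagged Eya2 (added as 5X mix: 250 nM and 500 nM) in 50 mM Tris pH 8.0, 300 mM NaCl, 1 mM TCEP. Glutathione donor and nickel acceptor beads; 1 h, 37 °C, dark.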
Sfp inh – Sfp phosphopantetheinyl transferase inhibition; Biochemical Sfp PPTase activity, qHTS; Potency, µM, for the others: max response, negative = inhibition, usual class: inhibitors; hit rate 3.5% among 310,000; active = well fitted inhibition curve with a large enough effect; inconclusive = small, poorly fitted or top-dose-only effect, or another doubt; inactive = no such curve, though single readings can be large or run the other way;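 also: the enzyme is Sfp with the accession as filed and its product quenches rhodamine fluorescence; potency is read from the fitted curve at half-maximal effect; 0% = enzyme reaction without inhibitor and -100% = no enzyme wells; top concentration of the series not given in the record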
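After 15 min at room temperature with compound, 15 nM Sfp received 5 uM rhodamine-CoA plus 12.5 uM BHQ-2-ybbR (50 mM Hepes pH 7.6, 10 mM MgCl2). Rate came from the fluorescence difference over 30 min, ex 525/em 598 nm.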
PINK1 expr mod – modulators of PINK1 expression; Potency, µM (titrated, usually from 76.6 µM), for inactives: at the top dose activation (PINK1 increase), hits mostly activators; AID 624263; PINK1 immunofluorescence, high-content cytometry, 24 h; hit rate 0.2% among 410,000; active = well fitted activation curve with a large enough effect; inconclusive = small, poorly fitted or top-dose-only effect; inactive = flat fitted curve, though single readings scatter; cell line not stated here;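 also: potency is read from the fitted curve at half-maximal effect; % of control where 0% means no effect; nearly all actives have a fitted effect of over 65% in size; a mitochondrial uncoupler was the plate control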
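Stable cell line treated 24 h with compounds at 5 concentrations (CCCP controls), then fixed and immunostained for PINK1 plus nuclear and cell stains; PINK1 immunofluorescence quantified by laser-scanning microplate cytometry.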
D2 potentiator – positive allosteric modulators of human D2 dopamine receptor | DiscoveRx D2 beta-arrestin cells, luminescence, 90 min; 100% = 57 uM dopamine signal | hit rate 0.23% among 360,000 | potentiation, % (test concentration not listed); active = potentiation of 50% or more; inconclusive = 30% to 50%; inactive = 30% or less;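 also: compound concentration not given in the record; tested on top of an EC20 dose of dopamine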
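PathHunter beta-arrestin assay in DiscoveRx D2 cells. Compounds were added with an EC20 of dopamine (50 nM final) for 90 min at 37 deg C. Luminescence was read 1 h after detection reagent, with 57 uM dopamine as the EC100 control.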
TRPV1 potentiator – enhances activation of the human vanilloid receptor TRPV1. hit rate 0.02% among 320,000. Q8NER1. TRPV1-expressing cells, Fluo-8 calcium influx, capsaicin EC20 potentiation; host cell line not named in the record; control for the full effect not named in the record. potentiation, % at 8.33 µM; active means potentiation above 80%; inconclusive means 30% to 80%; inactive means below 30%; also: 0% is about no effect
Target sequence (Q8NER1 whole entry, looked up): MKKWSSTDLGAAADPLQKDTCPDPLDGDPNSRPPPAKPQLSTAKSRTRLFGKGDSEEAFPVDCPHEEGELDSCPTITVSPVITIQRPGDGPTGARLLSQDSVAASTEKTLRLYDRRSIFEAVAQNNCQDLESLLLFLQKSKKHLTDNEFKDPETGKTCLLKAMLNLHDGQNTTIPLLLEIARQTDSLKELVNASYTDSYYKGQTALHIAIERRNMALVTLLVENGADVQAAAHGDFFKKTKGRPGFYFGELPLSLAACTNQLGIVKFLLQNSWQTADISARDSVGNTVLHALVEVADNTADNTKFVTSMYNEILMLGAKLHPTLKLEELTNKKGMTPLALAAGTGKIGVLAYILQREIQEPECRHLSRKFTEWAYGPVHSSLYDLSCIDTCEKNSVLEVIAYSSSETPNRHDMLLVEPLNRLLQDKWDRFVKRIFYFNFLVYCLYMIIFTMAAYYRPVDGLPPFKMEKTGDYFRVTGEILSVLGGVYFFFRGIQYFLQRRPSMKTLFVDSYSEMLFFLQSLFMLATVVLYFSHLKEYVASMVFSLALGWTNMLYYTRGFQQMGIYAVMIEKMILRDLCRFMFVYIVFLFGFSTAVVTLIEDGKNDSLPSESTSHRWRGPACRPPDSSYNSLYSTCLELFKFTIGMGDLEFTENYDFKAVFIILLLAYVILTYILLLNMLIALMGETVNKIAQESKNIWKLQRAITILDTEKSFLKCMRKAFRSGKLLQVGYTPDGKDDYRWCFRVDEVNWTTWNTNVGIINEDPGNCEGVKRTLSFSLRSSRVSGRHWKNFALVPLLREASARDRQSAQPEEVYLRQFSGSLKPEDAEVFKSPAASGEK
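Fluo-8 calcium influx in TRPV1-expressing cells, kinetic read (ex 480/em 520 nm). Compound added and read 3 min for agonist activity, followed by capsaicin at EC20 final and 2 min further read for enhancement.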
D2 ag – activates the human D2 dopamine receptor; AID 624465; DiscoveRx PathHunter D2 beta-arrestin, luminescence, 90 min; 100% = 57 uM dopamine signal; P14416; activation, % (concentration not given with the values); hit rate 0.084% among 360,000; in the data active = activation above about 40%; inconclusive = about 15% to 40%; inactive = below about 15%; also: compound concentration not given in the record; the text of the record calls up to 30% inactive
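Agonist mode: compounds alone added to overnight-plated D2 PathHunter cells for 90 min at 37 C, with 57 uM final dopamine (EC100) defining full response. Beta-arrestin recruitment detected by chemiluminescent reagent, read after 1 h at ambient temperature.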
CtBP-E1A inh – inhibitors of CtBP/E1A interaction. AID 651724. hit rate 0.49% among 340,000. activity change, % (no concentration beside the values). AlphaScreen GST-E1A/His-CtBP binding, 1536-well; stronger effect = lower value; control for the full effect not named in the record; in the data active means activity change below about -65%; inconclusive means about -30% to -65%; inactive means above about -30%; also: % is scaled to controls: 0 for no effect and ±100 for the full control effect; compound concentration not given in the record
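Protein mix (5X: 125 nM each GST-E1A, His-CtBP) was incubated with pinned compound 2 h at 37 deg C in dark, in 50 mM Tris pH 8.0 buffer with 300 mM NaCl. Glutathione donor and nickel acceptor beads followed; AlphaScreen signal read after 1 h.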
* marks the source's active call; other numbers are inactive results; ? = inconclusive; nt = no result given; & = joins results of further samples; [ ] = remark or other dose.

SMILES	Six1-Eya2 inh	Sfp inh	PINK1 expr mod	D2 potentiator	TRPV1 potentiator	D2 ag	CtBP-E1A inh
CC(C)Sc1nc(N2CCOCC2)c2c(c1C#N)CC(C)(C)N(C)C2	-9.2	-7.9%	-1.2%	-9.5	-23.5	-2.4	-2.7
C=CCOC(=O)C1=C(C)OC(N)=C(C#N)C1c1ccc(F)cc1 (stereo not given)	3.9	16.0%	18.4%	-8.7	-0.6	-1.9	7.7
Cc1ccc(S(=O)(=O)N(CC(=O)N=Nc2c(O)[nH]c3ccccc23)c2cccc(C)c2)cc1	-27.5	-8.1%	1.8%	-33.5	25.4	-4.6	?
O=C(CNS(=O)(=O)c1ccc(C(=O)N2CCOCC2)cc1)N1CCOCC1	5.7	8.6%	-0.4%	-25.0	-4.2	-0.9	0.2
CCC1(c2ccccc2)C(=O)NCNC1=O	2.5	-9.8%&16.5%&8.1%&22.3%&28.2%	1.1%	-3.0	12.3	-4.2	-8.1
COc1ccccc1CN1C(=O)c2cccc3cccc(c23)C1=O	10.7	-2.3%	15.6%	-17.5	-3.4	-3.6	15.9
Cc1nn(CCCC(=O)Nc2cccnc2Cl)c(C)c1[N+](=O)[O-]	6.5	11.0%	1.9%	2.0	-0.4	4.1	5.2
Cc1ccc(NC(=O)CSCC(=O)Nc2ccccc2N2CCCCC2)cc1	2.4	nt	?	-1.7	13.2	-2.3	-17.0
CC(C)(C)NC(=O)NC(=O)COC(=O)c1ccc(OC(F)F)cc1	2.1	3.3%	1.5%	4.2	24.9	-0.8	-6.4
COc1ccc(-n2nc(C(=O)NCC(=O)N3CCN(c4cccc(Cl)c4)CC3)c3ccccc3c2=O)c(OC)c1	-3.6	16.2%	1.0%	-5.5	24.9	1.7	-5.3
CCNC(=S)N/N=C/c1ccc(OCC(=O)Nc2ccc(C)cc2)cc1	-1.5	1.2%	-0.4%[38.3 µM]	6.1	-3.0	2.6	-0.9
Oc1ccc(Br)cc1/C=N/N1CCCCC1	-16.1	-0.5%	9.0%	-15.3	18.7	1.3	-2.1
CC1CCN(C(=O)COC(=O)c2ccc(Br)o2)CC1	3.2	-9.2%	7.1%[38.3 µM]	-6.6	?	-1.3	-1.5
O=C(NCc1ccccc1)[C@@H]1CCCN1C(=O)[C@@H]1CCCN1C(=O)c1ccc(Cl)cc1Cl	-2.6	nt	0.3%	nt	nt	nt	-9.9
CCNc1nc(NCC)nc(N/N=C/c2ccc([N+](=O)[O-])o2)n1	-83.5*	-11.3%	9.0%	-11.6	-0.6	1.1	-85.4*
COc1cccc(C=CC(=O)C=CC=Cc2ccccc2)c1	4.8	nt	-1.4%	-4.2	nt	-6.1	1.7
Cc1ccc(N(C)S(=O)(=O)c2ccc(-c3ccc(=O)[nH]n3)s2)cc1C	-19.1	26.8%	3.5%	-9.3	0.8	-2.1	nt
CCOC(=O)c1ccc(COC(=O)c2ccc3c(c2)-c2ccccc2C3=O)cc1	-0.5	2.6%	1.8%	-12.0	5.6	-1.8	-13.0
COc1ccc(C2=NO[C@@H]3C(=O)N(C4CCCCC4)C(=O)[C@H]23)cc1OC	-0.7	0.8%	3.2%	5.7	-2.4	-0.5	-0.7
COc1ccc(CC2(C)OC(c3ccc(Cl)cc3)=NN2C(C)=O)cc1 (stereo not given)	-10.9	-18.2%	14.8%	-9.4	-4.8	-3.3	1.8
COc1cccc(-c2nc(Cc3ccc(OC)c(OC)c3)no2)c1	4.7	-17.7%	-3.3%[38.3 µM]	-1.8	-15.5	2.6	4.3
Cc1nc2ccc(S(=O)(=O)NCC(=O)Nc3ccc(F)cc3)cc2s1	3.9	0.8%	-0.8%	-14.2	14.0	2.5	0.1
CC(CN1CCNCC1)(NS(=O)(=O)c1ccccc1)c1ccccc1 (stereo not given)	-12.0	?	1.3%	-19.7	2.9	-2.8	-3.4
Cc1ccc(/C=N/Nc2ncc(Cl)cc2Cl)s1	-8.4	11.9%	8.1%[38.3 µM]	-2.1	-7.1	-1.9	3.2
O=C(COc1ccccc1[N+](=O)[O-])OCC(=O)c1ccc(Br)s1	-6.4	nt	0.2%	-11.1	nt	-4.9	1.5
CCn1nc(C)c(CNC(=O)CC2C(=O)NCCN2Cc2ccc(C)o2)c1C (stereo not given)	9.9	-15.6%	1.2%	0.3	-3.1	-1.3	2.7
O=C1C=C(N2CCN(c3ccccn3)CC2)C(=O)c2c(O)ccc(O)c21	-13.3	nt	-6.0%	21.0	nt	?	-12.1
Cc1ccc(C(C)C)c(OCC(=O)OCC(=O)c2c(N)n(C)c(=O)n(C)c2=O)c1	-1.6	nt	1.9%	-3.9	-7.8	-0.9	-23.4
CCN(CC)CC(=O)NN=C(c1ccccc1)c1ccccc1	4.5	17.0%	-0.9%	-5.9	2.6	0.7	3.1
COc1ccccc1N(C(=O)c1ccncc1)c1nc(-c2ccc([N+](=O)[O-])cc2)cs1	-25.0	-17.2%	1.2%	9.0	-30.5	3.0	-23.2
Cc1nn(CC(=O)N2CCN(c3ccccn3)CC2)c(=O)c2cc3sccc3n12	7.8	0.4%	-0.1%	-7.8	10.5	-2.2	nt
NS(=O)(=O)c1ccc(NS(=O)(=O)c2ccc(NC(=O)C3CC3)cc2)cc1	6.5	-22.6%	-0.2%	-13.5	-10.0	-2.4	-0.4
Cc1oc(-c2ccc(Cl)cc2)nc1CS(=O)CC(=O)NCCN1CCCC1 (stereo not given)	-10.5	9.6%	1.4%	-7.0	-11.7	2.3	-1.2
O=C(O)c1ccc(NC(=S)NC2CCCCC2)cc1	8.2	?	-0.8%	-2.3	-6.9	2.8	-8.7
O=C1OC(c2ccccc2)/C(=C(/O)c2ccc(Cl)cc2)C1=O (stereo not given)	3.3	7.9%	-0.6%	-14.2	10.1	-1.6	-0.5
COc1ccc(Oc2nc(C)cc(C)c2C#N)cc1	9.0	-5.3%	0.6%[38.3 µM]	-12.3	6.6	1.9	7.2
CCCCNC(=O)[C@@H]1CCCN1S(=O)(=O)c1cccc2cccnc12	4.4	nt	0.4%	-6.1	-21.7	-0.8	2.7
CCC(C)NC(=O)Cc1cn(C)c2ccccc12 (stereo not given)	-0.3	0.4%	0.2%	1.7	?	-1.9	3.6
O=C(c1ccco1)N1CCC2CC1c1c(Cl)cccc12 (stereo not given)	2.2	nt	0.9%	-1.5	nt	-8.8	3.6
CCCn1c(=N)n(CC(=O)c2ccc([N+](=O)[O-])cc2)c2ccccc21	29.3	?	5.7%	3.6	9.4	2.9	17.0

Part of the list above in order of SMILES length, smallest number first.
SMILES	Six1-Eya2 inh	Sfp inh	PINK1 expr mod	D2 potentiator	TRPV1 potentiator	D2 ag	CtBP-E1A inh
Cc1oc(-c2ccc(Cl)cc2)nc1CS(=O)CC(=O)NCCN1CCCC1 (stereo not given)	-10.5	9.6%	1.4%	-7.0	-11.7	2.3	-1.2
Cc1nn(CC(=O)N2CCN(c3ccccn3)CC2)c(=O)c2cc3sccc3n12	7.8	0.4%	-0.1%	-7.8	10.5	-2.2	nt
CCCn1c(=N)n(CC(=O)c2ccc([N+](=O)[O-])cc2)c2ccccc21	29.3	?	5.7%	3.6	9.4	2.9	17.0

(list continues)
SMILES	Six1-Eya2 inh	Sfp inh	PINK1 expr mod	D2 potentiator	TRPV1 potentiator	D2 ag	CtBP-E1A inh
Cc1ccc(Cl)cc1N1CCN(C(=O)c2ccccc2SCC(=O)N2CCCC2)CC1	-2.2	nt	-0.6%	-3.6	-4.3	-4.2	5.3
COc1ccc(CCN2C(=O)CC(Cc3ccc(C)cc3)C2=O)cc1OC (stereo not given)	11.6	11.1%	0.8%	-3.2	7.4	-3.1	14.4
CCC(=O)N1CCN(c2ccc(Cl)cc2NC(=O)c2ccc(N3CCCC3)c([N+](=O)[O-])c2)CC1	-8.4	1.5%	-1.5%[38.3 µM]	-5.5	-8.9	-0.6	-6.5
O=C(NCCc1ccccc1)C1CCCN1C(=O)NCc1ccccc1 (stereo not given)	0.1	10.9%	0.6%	-0.1	-12.5	-1.9	-4.9
Oc1cncc(-c2cccnc2)c1	0.1	nt	0.8%	-1.0	0.8	-5.4	8.3
O=c1cc(CN2CCN(c3cccc(C(F)(F)F)c3)CC2)nc2sccn12	0.9	5.6%	0.1%	-25.0	4.9	-4.7	1.3
O=C(NCc1ccccc1)c1ccc(F)c(S(=O)(=O)N2CCOCC2)c1	0.6	7.7%	0.8%	-0.2	-2.9	-0.9	6.3
CCOC(=O)c1c(C)nc2c(c1C)/C(=N/O)CC(C)(C)C2	-1.1	2.1%	-1.5%[38.3 µM]	2.4	11.2	2.1	12.3
CCCc1nnc(NC(=O)CCS(=O)(=O)c2ccccc2)s1	-0.1	13.6%	0.0%	-4.0	1.7	-0.4	2.8
COc1cc([N+](=O)[O-])ccc1NC(=O)Cc1ccc(F)cc1	-8.8	11.1%	0.4%	-12.0	7.0	-1.7	1.1
COc1ccccc1CN(CC(=O)NCc1ccco1)C(=O)CNS(=O)(=O)c1ccccc1	-1.5	-7.5%	-0.2%	0.9	-4.9	1.6	8.7
CC1=NN(c2ccccc2)C(=O)C1N=Nc1ccc(N)cc1 (stereo not given)	-70.6*	-28.3%	0.0%	-8.9	-7.3	-0.3	?
CC12CCC(C(=O)Nc3ncc([N+](=O)[O-])s3)(OC1=O)C2(C)C (stereo not given)	8.5	1.8%	12.5%[38.3 µM]	-8.7	1.1	-3.8	0.1
COc1cccc(NS(=O)(=O)c2cc3c(cc2C)NC(=O)CO3)c1	-5.0	14.8%	-0.7%	3.0	-26.4	-2.5	-3.9
CCOC(=O)c1c(C)c(C(=O)NCCCOC(C)C)c(C)n1C	5.0	7.0%	6.1%[38.3 µM]	-7.5	-11.5	-0.3	2.1
COc1ccc(Nc2oc(COc3ccc(C)cc3)nc2C#N)cc1	-19.8	-17.0%	nt	-13.9	-3.9	11.9	-9.4
COc1cccc(CC(=O)NC2CCCN(Cc3ccc(Cl)cc3)C2)c1 (stereo not given)	-12.1	15.5%	-0.4%	-22.8	-5.1	-0.9	-0.5
COc1ccc2c(Cl)c(C(=O)NCCCn3ccnc3)sc2c1Cl	-15.8	10.5%	6.2%	-7.0	16.5	1.5	-12.8
COc1ccc(CCC(=O)NCCOc2ccccc2Cl)cc1	0.4	nt	0.5%	-23.8	nt	-1.5	nt
Cc1nc(SCC(=O)Nc2ccccc2)c2oc3ccccc3c2n1	1.0	12.6%	12.1%	9.0	9.6	-2.5	13.9
CCCC(=O)NC(=S)NNC(=O)c1ccc([N+](=O)[O-])cc1	-2.6	?	1.3%	4.9	-7.1	1.3	-13.7

Compound activity (PubChem)

Outcome played no part in choosing rows (roughly 3.7% active in at least one column).
